Bioassay records: PubChem, Broad Institute
UUG fidelity – modulators of yeast start codon fidelity, primary screen, whole organism, S. cerevisiae, single point, plate reader; S. cerevisiae UUG-firefly luciferase reporter, luminescence/redox ratio; activity score, % at 18.7 µM; actives 0.13% (n = 350,000); AID 602363, 2012;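 active means replicate mean at a twofold rise or more, about +100% in these data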;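 further: firefly luciferase made from a UUG start codon reports start codon fidelity; reporter light over untreated wells divided by growth signal over untreated wells; some hits fall short of that in this replicate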
Env fusion inh – inhibitors of HIV-1 Env-driven cell-cell fusion, primary screen, HeLa-JRFL effector, CEM21 target cells, luciferase; inhibition, % at 12.3 µM; actives 1.1% (n = 360,000);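 active means mean replicate inhibition score of at least 50 and every replicate individually at or above 50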;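 further: 0% = plate neutral controls and 100% = maraviroc near 300 nM; one replicate is shown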
* marks the source's active call; other numbers are inactive results; & = joins results of further samples; [ ] = dose if it differs, or a comment. This is a subset; rates above refer to the full screens.

Sample of the layout, 5 compounds:
canonical_smiles	UUG fidelity	Env fusion inh
CO[C@@H]1CN(C)C(=O)c2ccc(NC(=O)C3CC3)cc2OC[C@H](C)N(CC2CCOCC2)C[C@H]1C	3	-32[16.7 µM]
Cn1cnc(S(=O)(=O)N[C@@H]2CC[C@H](CC(=O)NCC3CC3)O[C@@H]2CO)c1	-13	12[16.7 µM]
C[C@@H]1CN([C@H](C)CO)C(=O)Cc2cc(NC(=O)Cn3cnnn3)ccc2O[C@H]1CN(C)S(=O)(=O)c1ccc(F)cc1	-3	-6[16.7 µM]
O=C(C[C@@H]1CC[C@@H](NC(=O)NC2CCCCC2)[C@H](CO)O1)NCc1ccc(F)cc1	2	-5[16.7 µM]
COc1ccc(CN(C)C[C@@H]2OCCCC[C@H](C)Oc3ccc(NS(=O)(=O)c4ccccc4)cc3C(=O)N([C@@H](C)CO)C[C@H]2C)cc1	-6	-18[16.7 µM]

Results (from the top)
canonical_smiles	UUG fidelity	Env fusion inh
CO[C@@H]1CN(C)C(=O)c2ccc(NC(=O)C3CC3)cc2OC[C@H](C)N(CC2CCOCC2)C[C@H]1C	3	-32[16.7 µM]
Cn1cnc(S(=O)(=O)N[C@@H]2CC[C@H](CC(=O)NCC3CC3)O[C@@H]2CO)c1	-13	12[16.7 µM]
C[C@@H]1CN([C@H](C)CO)C(=O)Cc2cc(NC(=O)Cn3cnnn3)ccc2O[C@H]1CN(C)S(=O)(=O)c1ccc(F)cc1	-3	-6[16.7 µM]
O=C(C[C@@H]1CC[C@@H](NC(=O)NC2CCCCC2)[C@H](CO)O1)NCc1ccc(F)cc1	2	-5[16.7 µM]
COc1ccc(CN(C)C[C@@H]2OCCCC[C@H](C)Oc3ccc(NS(=O)(=O)c4ccccc4)cc3C(=O)N([C@@H](C)CO)C[C@H]2C)cc1	-6	-18[16.7 µM]
C[C@H](CO)N1C[C@H](C)[C@@H](CN(C)CC2CC2)Oc2c(NS(C)(=O)=O)cccc2C1=O	-11&-15	8[16.7 µM]
Cc1noc(C)c1S(=O)(=O)N(C)C[C@H]1OCCCC[C@H](C)Oc2ccc(NC(=O)Nc3ccccc3)cc2C(=O)N([C@H](C)CO)C[C@@H]1C	-8	28[16.7 µM]
CC(C)NC(=O)N(C)C[C@@H]1OCCCC[C@@H](C)Oc2ccc(NS(=O)(=O)c3ccc(Cl)cc3)cc2C(=O)N([C@@H](C)CO)C[C@@H]1C	2	0[16.7 µM]
C[C@@H]1CN([C@H](C)CO)C(=O)Cc2cc(NC(=O)c3ccncc3)ccc2O[C@H]1CN(C)CC1CC1	-14	-1[16.7 µM]
CCC(=O)Nc1ccc2c(c1)OC[C@@H](C)N(C(=O)C1CC1)C[C@@H](C)[C@H](OC)CN(C)C2=O	-6	9[16.7 µM]
C[C@@H]1CCCCO[C@@H](CN(C)Cc2ccccc2)[C@@H](C)CN([C@@H](C)CO)C(=O)c2cc(NC(=O)c3ccccc3)ccc2O1	6	-6[16.7 µM]
C[C@H]1CN([C@@H](C)CO)C(=O)c2cc(-c3ccccc3)cnc2O[C@@H]1CN(C)C(=O)c1ccccn1	-5	12[16.7 µM]
C[C@@H]1CN([C@@H](C)CO)C(=O)Cc2cc(NC(=O)CCN3CCOCC3)ccc2O[C@@H]1CN(C)C(=O)Nc1ccc(F)cc1	3	12[16.7 µM]
CO[C@@H]1CN(C)C(=O)c2cc(NC(C)=O)ccc2OC[C@H](C)N(C(=O)C2CC2)C[C@@H]1C	-2	13[16.7 µM]
Cc1noc(C)c1S(=O)(=O)N(C)C[C@@H]1OCCCC[C@@H](C)Oc2ccc(NC(=O)Nc3ccccc3)cc2C(=O)N([C@@H](C)CO)C[C@H]1C	-10	-68[16.7 µM]
C[C@H]1CN([C@@H](C)CO)C(=O)c2cc(C#Cc3ccccc3)cnc2O[C@@H]1CN(C)C(=O)c1ccccc1	7	11[16.7 µM]
CNC(=O)C[C@@H]1CC[C@@H]2[C@H](COc3ccc(NC(=O)c4ccccc4Cl)cc3C(=O)N2C)O1	-3	-10[16.7 µM]
C[C@H](CO)N1C[C@H](C)[C@@H](CN(C)CC2CCCCC2)Oc2c(NC(=O)c3ccncc3)cccc2C1=O	-3	34[16.7 µM]
CC(C)C#Cc1cnc2c(c1)C(=O)N([C@H](C)CO)C[C@@H](C)[C@H](CN(C)C(=O)c1cnccn1)O2	3	-22[16.7 µM]
Cc1noc(C)c1NC(=O)N(C)C[C@@H]1Oc2c(NS(=O)(=O)c3ccc(Cl)cc3)cccc2C(=O)N([C@@H](C)CO)C[C@H]1C	-5	12[16.7 µM]
Cc1noc(C)c1S(=O)(=O)N(C)C[C@@H]1Oc2ccc(NC(=O)NC3CCCCC3)cc2CC(=O)N([C@H](C)CO)C[C@@H]1C	5	78*[16.7 µM]
C[C@@H]1CN([C@H](C)CO)C(=O)Cc2cc(NC(=O)Nc3ccc(F)cc3)ccc2O[C@@H]1CN(C)Cc1ccccc1	7	-7[16.7 µM]
CCC(=O)N(C)C[C@H]1Oc2cc(C#CC3CC3)ccc2S(=O)(=O)N([C@H](C)CO)C[C@@H]1C	30	-20[16.7 µM]
Cc1noc(C)c1NC(=O)Nc1cccc2c1O[C@H](CN(C)C(=O)NC(C)C)[C@H](C)CN([C@H](C)CO)C2=O	-2	-2[16.7 µM]
C[C@H]1CN([C@@H](C)CO)C(=O)c2cccc(NC(=O)Nc3ccc(C(F)(F)F)cc3)c2O[C@@H]1CN(C)Cc1ccc(C(=O)O)cc1	4	-34[16.7 µM]
CNC[C@H]1Oc2ccc(NC(=O)Nc3c(C)noc3C)cc2C(=O)N([C@H](C)CO)C[C@H]1C	-15	-6[16.7 µM]
CN(C)CC(=O)N[C@H]1CC[C@H](CCn2cc(C3CCCC3)nn2)O[C@@H]1CO	-1	4[16.7 µM]
C[C@@H]1CN([C@@H](C)CO)C(=O)c2cc(NC(=O)Nc3ccc(F)cc3)ccc2O[C@@H](C)CCCCO[C@@H]1CN(C)S(=O)(=O)c1cn(C)cn1	3	-3[16.7 µM]
C[C@@H]1CN([C@H](C)CO)C(=O)Cc2cc(NS(=O)(=O)c3ccccc3)ccc2O[C@H]1CN(C)S(=O)(=O)c1cn(C)cn1	3	-23[16.7 µM]
C[C@H]1CCCCO[C@H](CN(C)C(=O)Nc2ccccc2)[C@@H](C)CN([C@@H](C)CO)C(=O)c2cc(NS(C)(=O)=O)ccc2O1	-6	4[16.7 µM]
CC(C)NC(=O)Nc1ccc2c(c1)C(=O)N([C@H](C)CO)C[C@@H](C)[C@H](CN(C)C(=O)Nc1ccc3c(c1)OCO3)O2	-9	10[16.7 µM]
O=C(NCC[C@H]1CC[C@@H](NC(=O)C2CCC2)[C@H](CO)O1)Nc1ccc(Cl)cc1	3	21[16.7 µM]
C[C@@H]1CCCCO[C@@H](CN(C)CC2CCCCC2)[C@@H](C)CN([C@@H](C)CO)C(=O)c2cc(NC(=O)Nc3ccc4c(c3)OCO4)ccc2O1	18	-10[16.7 µM]
O=C(Nc1ccc(C(F)(F)F)cc1)N[C@H]1CC[C@H](CCn2cc(C3(O)CCCC3)nn2)O[C@H]1CO	-10	15[16.7 µM]
C[C@@H]1CN([C@H](C)CO)S(=O)(=O)c2ccc(-c3cccc(C#N)c3)cc2O[C@@H]1CN(C)Cc1ccccn1	-12	2[16.7 µM]
Cc1ccc(S(=O)(=O)Nc2ccc3c(c2)C(=O)N([C@@H](C)CO)C[C@@H](C)[C@@H](CN(C)C(=O)Nc2c(C)noc2C)O3)cc1	-13	-8[16.7 µM]
Cc1ccc(S(=O)(=O)Nc2ccc3c(c2)C(=O)N([C@H](C)CO)C[C@@H](C)[C@@H](CN(C)C(=O)Nc2c(C)noc2C)OCCCC[C@@H](C)O3)cc1	-1	4[16.7 µM]
O=C(NCC[C@H]1CC[C@@H](NC(=O)C2CC2)[C@H](CO)O1)Nc1ccc(C(F)(F)F)cc1	-13	-46[16.7 µM]
CC(C)NC(=O)N[C@@H]1CC[C@H](CC(=O)NC2Cc3ccccc3C2)O[C@H]1CO	-23	-6[16.7 µM]
CN(C)CC(=O)N[C@@H]1C=C[C@@H](CC(=O)NCc2ccccc2F)O[C@H]1CO	0	1[16.7 µM]
C/C=C/c1ccc([C@@H]2[C@@H](C#N)N(c3ncc(CC)s3)[C@@H]2CO)cc1	-5	-5[16.7 µM]
C[C@@H]1CCCCO[C@H](CN(C)S(=O)(=O)c2ccc(F)cc2)[C@H](C)CN([C@H](C)CO)C(=O)c2cc(NS(=O)(=O)c3cn(C)cn3)ccc2O1	11	26[16.7 µM]
COc1ccccc1NC(=O)N[C@H]1CC[C@H](CCn2cc(-c3ccccc3)nn2)O[C@H]1CO	5	-7[16.7 µM]
C[C@H](CO)N1C[C@H](C)[C@@H](CN(C)C(=O)Nc2ccc3c(c2)OCO3)OCCCC[C@H](C)Oc2ccc(NS(=O)(=O)c3ccc(F)cc3)cc2C1=O	-7	-4[16.7 µM]
O=[N+]([O-])c1ccccc1/C=C/c1ccncc1	-2	-38[16.7 µM]
Cc1ccc(S(=O)(=O)N[C@H]2CC[C@H](CCNC(=O)Cc3ccccn3)O[C@@H]2CO)cc1	-3	12[16.7 µM]
Cc1ccc(-c2ccc3c(c2)O[C@@H](CN(C)C(=O)NC(C)C)[C@@H](C)CN([C@H](C)CO)S3(=O)=O)cc1	35	-18[16.7 µM]
Cc1noc(C)c1NC(=O)Nc1ccc2c(c1)C(=O)N([C@H](C)CO)C[C@@H](C)[C@@H](CN(C)S(=O)(=O)c1ccccc1)OCCCC[C@@H](C)O2	13	-56[16.7 µM]
CC(C)CC#Cc1cnc2c(c1)C(=O)N([C@@H](C)CO)C[C@H](C)[C@@H](CN(C)S(=O)(=O)c1cccs1)O2	-9	13[16.7 µM]
COC(=O)N(C)C[C@H]1OCc2cnnn2CCCC(=O)N([C@H](C)CO)C[C@@H]1C	-6	-1
O=C(C[C@@H]1CC[C@H](NC(=O)c2cccc(F)c2)[C@H](CO)O1)NCc1ccccc1	-15	-8[16.7 µM]
CC(C)C(=O)Nc1ccc2c(c1)C(=O)N(C)[C@H]1CC[C@H](CC(=O)N[C@H](C)c3ccccc3)O[C@@H]1CO2	9	4[16.7 µM]
C[C@@H]1CCCCO[C@@H](CN(C)C(=O)CCCN(C)C)[C@H](C)CN([C@@H](C)CO)C(=O)c2cc(NC(=O)NC3CCCCC3)ccc2O1	7	1[16.7 µM]
CC(C)c1cn(CC[C@@H]2CC[C@H](NC(=O)C3CCCCC3)[C@@H](CO)O2)nn1	-6	-26[16.7 µM]
C[C@@H]1CN([C@H](C)CO)C(=O)Cc2cc(NC(=O)Cc3cn(C)c4ccccc34)ccc2O[C@@H]1CN(C)Cc1ccc(C(=O)Nc2ccccc2N)cc1	10	-275[16.7 µM]
C[C@@H]1CN([C@H](C)CO)C(=O)c2cc(C#CCN(C)C)cnc2O[C@H]1CN(C)S(C)(=O)=O	14	-1[16.7 µM]
CO[C@H]1CN(C)C(=O)c2ccc(NC(=O)Cc3ccccc3)cc2OC[C@H](C)N(CC2CC2)C[C@H]1C	32	-2[16.7 µM]
O=C(C[C@@H]1C=C[C@@H](NC(=O)c2ccncc2)[C@H](CO)O1)NCC1CCCCC1	-4	-5[16.7 µM]
Cc1noc(C)c1S(=O)(=O)Nc1ccc2c(c1)CC(=O)N([C@@H](C)CO)C[C@@H](C)[C@H](CN(C)S(=O)(=O)c1ccc(Cl)cc1)O2	-4	1[16.7 µM]
C[C@@H]1CN([C@H](C)CO)S(=O)(=O)c2ccc(-c3ccncc3)cc2O[C@@H]1CN(C)C(=O)Nc1ccc(C(F)(F)F)cc1	-10	27[16.7 µM]

(listing goes on)
canonical_smiles	UUG fidelity	Env fusion inh
C[C@H](CO)N1C[C@H](C)[C@H](CN(C)C(=O)Nc2ccccc2)OCCCC[C@H](C)Oc2ccc(NS(=O)(=O)c3cn(C)cn3)cc2C1=O	-3	8[16.7 µM]
COc1ccc(NC(=O)N(C)C[C@H]2Oc3ccc(NC(=O)Cc4ccccc4)cc3CC(=O)N([C@@H](C)CO)C[C@@H]2C)cc1	9	1[16.7 µM]
C[C@H]1CN([C@@H](C)CO)C(=O)Cc2cc(NC(=O)Nc3ccc(C(F)(F)F)cc3)ccc2O[C@H]1CN(C)Cc1ccc(Cl)c(Cl)c1	-4	31[16.7 µM]
C[C@H](CO)N1C[C@H](C)[C@H](CN(C)Cc2ccccc2)Oc2cc(C#CCN(C)C)ccc2S1(=O)=O	0	-16[16.7 µM]
C[C@@H]1CN([C@H](C)CO)C(=O)c2cc(C#CCN(C)C)cnc2O[C@@H]1CN(C)Cc1ccccc1	-5	-5[16.7 µM]
COc1ccc(S(=O)(=O)N(C)C[C@@H]2Oc3ncc(C#Cc4ccc(OC)c(OC)c4)cc3C(=O)N([C@H](C)CO)C[C@@H]2C)cc1	3	15[16.7 µM]
Cc1ccc(S(=O)(=O)N[C@H]2C=C[C@@H](CC(=O)N3CCC(Cc4ccccc4)CC3)O[C@H]2CO)cc1	26	56*[16.7 µM]
Cc1ccc(S(=O)(=O)N(C)C[C@@H]2Oc3ccc(NC(=O)Nc4ccc5c(c4)OCO5)cc3C(=O)N([C@H](C)CO)C[C@@H]2C)cc1	-3	60*[16.7 µM]
